# Arbovirus anti = antivirals against arbovirus infection; arbovirus infection cell-based antiviral screen; inhibition, % at 10 µM; 200,000 tested, 0.37% active;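 active = inhibition from about 30%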;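 also: bluetongue infection of BSR cells; cell survival read as ATP light after 72 h; 0% = infected wells without compound and 100% = uninfected wells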
# Mtb bLac sens = beta-lactam sensitization of Mtb H37Rv | M. tuberculosis H37Rv growth with meropenem, percent inhibition; hits of this screen are not shown here | inhibition, % at 25 µM | 330,000 tested, 0.27% active | AID 434955;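 active = about 74% or more and at least 40 points above the plate without the antibiotic, then above 30% in a dose series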;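 also: growth measured after seven days incubation then overnight dye step; 0% = bacteria only wells and 100% = bacteria with antibiotic; twin plates without the antibiotic show which effects depend on it; some results filed as inactive read as strong as hits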
# RecA splice inh = blocks M. tuberculosis RecA intein splicing | inhibition, %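 (about 9 µM by stock and volumes)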 | P9WHJ3 | 290,000 tested, 0.75% active | cell-free RecA intein splicing, fluorescence; in the data active = inhibition above about 30%;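 also: 0% = vehicle wells and 100% = reference inhibitor control wells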
# Target sequence (P9WHJ3 whole entry, looked up, canonical isoform): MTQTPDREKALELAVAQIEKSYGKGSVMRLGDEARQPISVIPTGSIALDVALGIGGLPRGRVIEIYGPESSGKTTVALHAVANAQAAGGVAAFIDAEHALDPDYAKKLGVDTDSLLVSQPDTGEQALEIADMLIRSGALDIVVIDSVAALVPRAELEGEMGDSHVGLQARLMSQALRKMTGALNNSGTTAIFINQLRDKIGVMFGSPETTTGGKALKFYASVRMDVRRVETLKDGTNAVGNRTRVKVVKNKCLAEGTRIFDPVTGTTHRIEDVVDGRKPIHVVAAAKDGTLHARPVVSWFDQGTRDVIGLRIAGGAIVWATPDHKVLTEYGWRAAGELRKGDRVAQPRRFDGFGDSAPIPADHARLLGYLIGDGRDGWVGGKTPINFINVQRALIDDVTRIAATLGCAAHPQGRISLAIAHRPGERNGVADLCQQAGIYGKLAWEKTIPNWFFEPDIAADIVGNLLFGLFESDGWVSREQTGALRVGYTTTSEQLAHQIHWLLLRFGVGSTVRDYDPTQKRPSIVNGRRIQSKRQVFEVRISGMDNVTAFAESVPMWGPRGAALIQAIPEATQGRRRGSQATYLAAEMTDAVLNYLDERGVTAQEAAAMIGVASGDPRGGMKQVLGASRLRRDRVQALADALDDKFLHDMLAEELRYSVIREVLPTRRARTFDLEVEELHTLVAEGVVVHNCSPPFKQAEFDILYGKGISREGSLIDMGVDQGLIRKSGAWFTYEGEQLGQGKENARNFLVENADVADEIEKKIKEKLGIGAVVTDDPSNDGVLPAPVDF
# YopH inh = inhibitors of Yersinia enterocolitica YopH tyrosine phosphatase; fluorescence Ex485/Em525; inhibition, %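 (about 10 µM by stock and volumes)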; 140,000 tested, 0.16% active; AID 898;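 active = inhibition of 50% or more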;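 also: controls were vehicle for no effect and minimum signal wells for full effect; inactives centre near -20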
# Mtb H37Rv = M. tuberculosis H37Rv growth inhibitors, H37Rv strain (AID 1626). one-dose inhibition, % at 10 µM; IC50 in µM for titrated hits. M. tuberculosis H37Rv growth inhibition; higher % means a stronger effect. 220,000 tested, 0.95% active;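 active = confirmed in a dose series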;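 also: bacteria incubated seven days before Alamar blue readout; 0% = bacteria only wells and 100% = bacteria with antibiotic wells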
# Arbovirus anti repeat = recorded beside Arbovirus anti, whose call it bears; inhibition, %; measured here: 10K subset replicate screen; many hits read low in the repeat;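 first of two repeat runs on a subset; 0% = infected and 100% = uninfected wells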
# Numbers without * were called inactive; nt = not tested or not shown. Some of the compounds tested (hit frequency here may not be typical).
SMILES,Arbovirus anti,Mtb bLac sens,RecA splice inh,YopH inh,Mtb H37Rv,others
Cc1cc(C)c(C(=O)CN2CCOCC2)c(C)c1,3,4,-0.7,-27,-4%,
CCN(Cc1ccccc1)S(=O)(=O)c1ccc(OC)c2ncccc12,nt,-5,2.5,nt,-2%,
CCc1ccc(NC(=O)C2CCN(S(=O)(=O)c3c(C)noc3C)CC2)cc1,nt,2,-1.7,nt,nt,
O=c1[nH]c(/C=C/c2ccc3c(c2)OCO3)c([N+](=O)[O-])c(=O)[nH]1,3,-5,-2.7,nt,-16%,
Cc1ccc(NS(=O)(=O)c2ccc(-n3cccn3)cc2)nc1,nt,-8,-3.0,nt,nt,
COc1ccc2c(c1)CCc1c(C(=O)NCc3ccc(F)cc3)noc1-2,-2,-6,-0.4,-18,1%,Arbovirus anti repeat=-3
CC(=O)OCc1nc2sc(C)c(C)c2c(=O)[nH]1,2,-3,1.0,-12,0%,
CCN(c1ccccc1)S(=O)(=O)c1ccc(N)c(OC)c1,-21,-4,-0.1,-22,nt,
COCCn1nnnc1CN1CCSCC1,0,7,-1.0,nt,-17%,
Cc1cccc(-n2c(=O)cc(N3CCN(c4ccc(F)cc4)CC3)[nH]c2=O)c1,-5,-5,3.0,-17,2%,Arbovirus anti repeat=-4
COc1ccc(Cl)cc1NC(=O)CN(C)CC(=O)Nc1ccccc1C(F)(F)F,-2,2,-0.9,nt,10%,
COCCCn1c(SCC(=O)NC(C)C)nnc1-c1ccccc1,15,-6,nt,-34,-16%,
C#CCn1c(=NC(=O)c2ccco2)sc2cccc(Cl)c21,nt,-11,2.3,nt,7%,
CC(=O)N=C1SC2CS(=O)(=O)CC2N1c1cccc(Cl)c1Cl (stereo not given),9,-4,-16,-42,1%,
Cc1ccc(-n2cnnn2)c2cccnc12,1,9,0.4,-35,-8%,
CC(C)C[C@H](NC(=O)[C@@H]1Cc2ccccc2CN1C(=O)OC(C)(C)C)C(=O)NCC1CCC(C(=O)O)CC1 (stereo not given in full),nt,-4,0.2,nt,-7%,
COc1ccc(NS(=O)(=O)c2cn(C)cn2)cc1OC,nt,3,-0.7,nt,nt,
CCOc1ccccc1N(C(C)=O)S(=O)(=O)c1ccc(Cl)cc1,3,-8,-2.2,nt,3%,
CCN(CC)CCN(C(=O)c1ccc([N+](=O)[O-])cc1)c1nc2ccc(OC)cc2s1,2,11,5.0,nt,3%,
COc1ccc(C=O)cc1OC1C=CCCC1 (stereo not given),nt,0,4.5,nt,nt,
CCCOc1ccc(C(=O)NCc2ccco2)cc1,-3,1,-1.5,-19,-9%,Arbovirus anti repeat=-4
Cc1nc(S/C(=C\c2ccc(OCc3ccccc3Cl)cc2)C(=O)O)n[nH]1,4,nt,nt,-39,0%,
CCn1c(-c2cccc(S(=O)(=O)N3CCCC3)c2)n[nH]c1=S,nt,0,2.0,nt,-1%,
N#CC1=C(N)SC(C(=O)c2ccccc2)C1c1cccs1 (stereo not given),-17,1,13,32,-4%,
CC(C)(C)c1ccc(C(=O)NNC(=O)c2cccc(-n3cnnn3)c2)cc1,nt,2,0.5,nt,-1%,
CN1CCN(C(=O)c2ccccc2Nc2ccc(SC(F)F)cc2)CC1,-2,7,nt,nt,4%,
CCOc1ccc(NS(=O)(=O)c2ccc(-c3coc(C)n3)cc2)cc1,nt,3,-0.5,nt,nt,
Cc1ccccc1C(=O)Nc1ccc(S(=O)(=O)Nc2onc(C)c2C)cc1,nt,0,-0.8,nt,-11%,
Cc1sc2ncn(CC(=O)NCCCC(=O)N3CCCCC3)c(=O)c2c1C,nt,-1,-1.8,nt,nt,
c1ccc(-c2nnc3ccc(N4CCCC4)nn23)cc1,-6,-3,0.0,-33,10%,
COc1ccccc1NC(=S)NC1CCCC1,nt,2,1.4,nt,nt,
CN(C)c1nc(OCCNC(=O)Nc2ccccc2)nc(N2CCCCC2)n1,-4,-5,-4.2,nt,-7%,
CN(c1ccccc1C(=O)N1CCN(c2cccc(Cl)c2)CC1)S(C)(=O)=O,2,0,0.8,30,-2%,
Cc1cccc(NC(=O)c2cc3ccccc3nc2C)c1,2,10,-0.1,nt,6%,
Cn1c(SCC(=O)Nc2ccccc2[N+](=O)[O-])nnc1C(F)(F)F,-1,-5,0.7,nt,4%,
COCCOC(=O)C1=C(C)NC(=O)N(C(C)=O)C1c1ccc(Cl)cc1 (stereo not given),-2,6,-1.2,-28,-14%,
OCC[C@@H]1C[C@@H](O)[C@H](O)[C@@]2(CCCO2)O1,nt,-3,-1.6,nt,11%,
COc1cc2[nH]c(=O)n(-c3ccc(C)cc3)c(=O)c2cc1OC,-1,nt,1.6,10,nt,
Cc1ccccc1-n1c(SC(C)C(=O)N2CCN(C)CC2)nc2ccccc2c1=O (stereo not given),3,-2,-0.9,-12,nt,
O=C(Nc1nccs1)C1CCN(S(=O)(=O)c2ccc(Cl)c(C(F)(F)F)c2)CC1,-1,7,-6.0,-15,-19%,
CCN(Cc1ccccc1)S(=O)(=O)c1ccc(C(=O)N(CCCN(C)C)c2nc3cc(OC)ccc3s2)cc1,nt,7,0.0,nt,nt,
CCOC(=O)C1(CCc2ccccc2)CCN(C(=O)CCn2cncn2)CC1,1,-4,0.8,nt,0%,
CCN1CCN(c2ccc(NC(=O)c3ccc4c(c3)OCO4)cc2)CC1,-9,-7,-4.0,-26,nt,
CCCC(=O)Nc1ccc(C(=O)O)cc1NC(=O)CCC,10,0,-0.6,28,-5%,
O=C(CSc1nc2ccccc2c(=O)n1CC1CCCCC1)N1CCOCC1,-3,-1,-1.5,-14,-5%,
CN(C)C(CNC(C(=O)Nc1ccc(F)cc1)c1ccccc1)c1ccccc1 (stereo not given),nt,-5,3.7,nt,nt,
C=CCn1c(SCC(=O)C(C)(C)C)nnc1-c1ccccn1,4,-2,-4.1,-33,0%,
N#Cc1nc(-c2ccccc2F)oc1N1CCN(C(=O)c2ccco2)CC1,nt,-17,1.0,nt,nt,

# Gathered by group: the compounds so far containing a tert-butyl group.
SMILES,Arbovirus anti,Mtb bLac sens,RecA splice inh,YopH inh,Mtb H37Rv,others
CC(C)C[C@H](NC(=O)[C@@H]1Cc2ccccc2CN1C(=O)OC(C)(C)C)C(=O)NCC1CCC(C(=O)O)CC1 (stereo not given in full),nt,-4,0.2,nt,-7%,
CC(C)(C)c1ccc(C(=O)NNC(=O)c2cccc(-n3cnnn3)c2)cc1,nt,2,0.5,nt,-1%,
C=CCn1c(SCC(=O)C(C)(C)C)nnc1-c1ccccn1,4,-2,-4.1,-33,0%,

# Returning to the listing, starting five compounds before the break.
SMILES,Arbovirus anti,Mtb bLac sens,RecA splice inh,YopH inh,Mtb H37Rv,others
CCCC(=O)Nc1ccc(C(=O)O)cc1NC(=O)CCC,10,0,-0.6,28,-5%,
O=C(CSc1nc2ccccc2c(=O)n1CC1CCCCC1)N1CCOCC1,-3,-1,-1.5,-14,-5%,
CN(C)C(CNC(C(=O)Nc1ccc(F)cc1)c1ccccc1)c1ccccc1 (stereo not given),nt,-5,3.7,nt,nt,
C=CCn1c(SCC(=O)C(C)(C)C)nnc1-c1ccccn1,4,-2,-4.1,-33,0%,
N#Cc1nc(-c2ccccc2F)oc1N1CCN(C(=O)c2ccco2)CC1,nt,-17,1.0,nt,nt,
Cc1cccc(C(=O)N/N=C/c2ccc[nH]2)c1,3,-1,2.1,-21,1%,
CCc1nc(SCC(=O)Nc2ccccc2OC)n[nH]1,nt,-1,-0.8,nt,nt,
O=[N+]([O-])c1ccccc1/C=N/n1c(C(F)(F)F)n[nH]c1=S,17,2,2.1,nt,1%,
c1ccc(-n2cnc3cc(NCc4ccco4)ccc32)cc1,-18,44,11,nt,1%,
FC(F)(F)c1cc(-c2ccccn2)nc2cc(-c3ccccc3)nn12,nt,0,-9.4,nt,0%,
Cc1noc(C)c1CSCC(=O)Nc1nc(-c2ccc(F)c(F)c2)cs1,nt,-5,2.1,nt,nt,
CCCC(=O)N1CCN(c2ccc(NC(=S)NC(=O)CC)cc2)CC1,1,nt,2.5,-9,-6%,
Nc1nccnc1C(=O)OCC(=O)C12CC3CC(CC(C3)C1)C2,nt,-9,-1.1,nt,nt,
CSc1nc2ccsc2c(=O)n1-c1cccnc1,9,-1,0.8,nt,9%,
CCOC(=O)/C(C#N)=C/c1cccc(F)c1,6,7,0.5,nt,-4%,
O=C(CCN1C(=O)C2C3C=CC(C3)C2C1=O)N1CCN(c2ccc([N+](=O)[O-])cc2)CC1 (stereo not given),12,-11,6.9,nt,-6%,
CCOC(=O)CSc1nnc(-c2cccs2)n1-c1ccccc1,3,-4,-0.9,-32,-5%,
CCc1ccc(S(=O)(=O)Nc2ccc(C)c(NS(C)(=O)=O)c2)cc1,nt,0,1.0,nt,15%,
Cc1ccc(CNS(=O)(=O)c2cc3c(cc2C)NC(=O)CO3)cc1,nt,1,-4.5,nt,nt,
CN(C(=O)c1ccccc1)C1(C)CCS(=O)(=O)C1 (stereo not given),7,-3,-0.2,-15,-11%,
COc1cc(C=O)ccc1OS(=O)(=O)c1ccc(NC(C)=O)cc1,-1,-5,-3.9,-21,-4%,
Cc1cccc(CSC2=NCCN2C(=O)c2ccc(Br)o2)c1,7,1,nt,-8,-3%,
N#Cc1sc2nccc(Nc3ccccc3)c2c1N,nt,-11,-0.6,nt,nt,
COc1ccc(OC)c(/C=N/NC(=O)CCCC(=O)Nc2cccc(Br)c2)c1,-10,18,1.5,3,3%,
COc1ccc(C(=O)Nc2cccc(NC(=O)c3cccs3)c2)cc1OC,nt,-2,1.8,nt,nt,
COc1ccccc1CNC(=O)c1ccc2c(c1)OCO2,nt,-6,-4.5,nt,nt,
COCCNC(=O)c1noc2c1CCc1cc(OC)ccc1-2,-9,-5,3.0,-23,-5%,
CCc1ccc2nc(SCC(=O)N3CCCCC3)c(C#N)cc2c1,3,-3,2.1,-14,nt,
CSc1ccccc1NC(=O)c1c(Br)cnn1C,-4,nt,1.8,-6,6%,
CN(C)C(CNC(=O)c1ccc2nc[nH]c2c1)c1ccccc1 (stereo not given),3,5,2.8,nt,-3%,
Cn1cc(CC(=O)Nc2cccc(C#N)c2)c2ccccc21,10,-6,4.7,-26,-2%,
O=C(c1ccc2c(=O)n(Cc3ccc(Cl)cc3)c(=S)[nH]c2c1)N1CCOCC1,nt,7,-1.0,nt,nt,
O=C(NN1C(=O)C2C3C=CC([C@@H]2C1=O)C31CC1)c1ccccc1 (stereo not given in full),nt,-4,2.6,nt,-5%,
CCc1ccc(N2CC(C(=O)Nc3cc(C)on3)CC2=O)cc1 (stereo not given),2,-7,-4.8,nt,-16%,
CCOC(=O)c1cc(S(=O)(=O)N2CCN(C3CCCCC3)CC2)cn1C,nt,-3,-1.6,nt,nt,
C[N+]1(C)CCC(=C2c3ccccc3CC(=O)c3sccc32)CC1,-3,9,-10,38,-7%,
O=C(COc1ccccc1)NCC1(N2CCCCC2)CCCCC1,12,-8,2.1,nt,6%,
CC1(C)CN(c2ccc(C(=O)c3ccccc3)cc2)C1=O,7,1,0.8,nt,3%,
Cc1cccc(CSc2nc3c(c(-c4cccs4)c2C#N)CN(C)CC3)c1,8,100,61*,0,3%,
Cc1nn(-c2ccccc2)c(-c2ccccc2)c1C(=O)O,-4,5,0.0,-57,-7%,
COc1ccc(CCN2CC(C(=O)NCCc3ccc(C)cc3)CC2=O)cc1OC (stereo not given),2,-4,-2.1,nt,3%,

# The final two records of the section before lead into the next:
SMILES,Arbovirus anti,Mtb bLac sens,RecA splice inh,YopH inh,Mtb H37Rv,others
Cc1nn(-c2ccccc2)c(-c2ccccc2)c1C(=O)O,-4,5,0.0,-57,-7%,
COc1ccc(CCN2CC(C(=O)NCCc3ccc(C)cc3)CC2=O)cc1OC (stereo not given),2,-4,-2.1,nt,3%,
CCCCN(C)C(=O)CS(=O)(=O)Cc1nc(-c2cccc(OC)c2)oc1C,14,-8,1.4,2,-5%,
Cc1cc(C)cc(OCC(=O)Nc2nonc2NC(=O)COc2cc(C)cc(C)c2)c1,2,-10,0.1,17,0%,
COC(=O)c1ccc(CNCC(=O)Nc2ccc(C(=O)OC)cc2)cc1,9,67,-0.1,-21,5%,
Cc1ccc(C(=O)NC2CC3CCCC(C2)N3C(=O)NC2CCCCC2)cc1 (stereo not given),1,nt,0.9,17,-9%,
CC(=O)N1CC(=O)Nc2ccc(C)cc2C1c1ccccc1 (stereo not given),nt,-1,0.4,nt,nt,
CC1CCCCN1C(=O)CSCC(=O)Nc1nc(-c2cccs2)cs1 (stereo not given),3,-2,4.3,-27,5%,Arbovirus anti repeat=4

# Sorted by count of non-hydrogen atoms (ascending): some entries from above.
SMILES,Arbovirus anti,Mtb bLac sens,RecA splice inh,YopH inh,Mtb H37Rv,others
CC(=O)N1CC(=O)Nc2ccc(C)cc2C1c1ccccc1 (stereo not given),nt,-1,0.4,nt,nt,
CC1CCCCN1C(=O)CSCC(=O)Nc1nc(-c2cccs2)cs1 (stereo not given),3,-2,4.3,-27,5%,Arbovirus anti repeat=4
Cc1cc(C)cc(OCC(=O)Nc2nonc2NC(=O)COc2cc(C)cc(C)c2)c1,2,-10,0.1,17,0%,
